Bioassay records deposited in PubChem by National Center for Advancing Translational Sciences (NCATS).
RE007 growth inh: less growth of the S. pombe RE007 Vpr strain; S. pombe RE007 Vpr strain, BacTiter-Glo ATP luminescence, 24 h; control for the full effect not named in the record; Potency, µM (top dose mostly 92.2 µM), for inactives: at the top dose activity change, negative = less growth; hit rate 0.21% among 360,000; AID 651644; active = well fitted falling curve with a large enough effect; inconclusive = small, poorly fitted or top-dose-only effect; inactive = no such curve, though single readings can be large or run the other way;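 note: % is set by controls: 0 for no effect and ±100 for the full control effect; nearly all actives have a fitted effect of over 50% in size; the assay follows cell death caused by Vpr and the record does not say whether a fall means rescue or toxicity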
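Fission yeast RE007 carrying one integrated HIV-1 vpr copy, seeded at OD 0.01 in PMG+AL medium with 23 nL pinned compound. Grown 24 h at 30 degrees; viability read by BacTiter-Glo luminescence after 5 min.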
Cruzain inh noDet: inhibitors of Trypanosoma cruzi cruzain without detergent; hit rate 2.3% among 200,000; P25779; AID 1476; Potency, µM, without a hit: max response, negative = inhibition, usual class: inhibitors; purified cruzain, Z-FR-AMC fluorescence, no detergent;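 note: plate controls were enzyme without inhibitor for no effect and buffer without enzyme for full effect; nearly all actives have a fitted effect of over 40% in size; top concentration of the series not given in the record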
Target sequence (P25779 123-467 limits assumed): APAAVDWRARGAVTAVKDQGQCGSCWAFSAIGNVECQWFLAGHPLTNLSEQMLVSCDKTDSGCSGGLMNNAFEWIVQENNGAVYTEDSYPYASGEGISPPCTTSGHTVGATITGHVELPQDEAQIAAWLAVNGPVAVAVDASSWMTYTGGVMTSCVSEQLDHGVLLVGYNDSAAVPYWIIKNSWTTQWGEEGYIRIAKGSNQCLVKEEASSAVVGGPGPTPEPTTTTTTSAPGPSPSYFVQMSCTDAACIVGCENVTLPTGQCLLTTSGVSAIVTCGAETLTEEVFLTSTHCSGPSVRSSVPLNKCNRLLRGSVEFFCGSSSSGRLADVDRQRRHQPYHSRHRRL
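Purified cruzain at 1.5 nM, pre-incubated 15 min with compound at room temperature in 100 mM sodium acetate pH 5.5, 5 mM DTT, 0.00005% Triton X-100. Reaction started with 2 uM Z-FR-AMC; AMC fluorescence increase over 60 s gives rate.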
Cruzain Triton: blocks cruzain activity in presence of Triton detergent | hit rate 0.43% among 200,000 | AID 1478 | Potency, µM, for the others: max response, negative = inhibition, most hits filed as inhibitors | purified cruzain, Z-FR-AMC fluorescence, 0.01% Triton | P25779;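 note: plate controls were neutral wells for no effect and buffer without enzyme for full effect; nearly all actives have a fitted effect of over 40% in size; top concentration of the series not given in the record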
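Purified cruzain (1.5 nM final) was preincubated with compounds for 15 min at room temperature in 100 mM sodium acetate pH 5.5, 5 mM DTT, 0.01% Triton X-100. Reaction started with 2 uM Z-FR-AMC; AMC fluorescence change over 60 s gave activity.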
Lassa entry inh: Lassa virus entry inhibition | Lassa virus pseudotype entry inhibition, cell reporter; control for the full effect not named in the record | Potency, µM (series often up to 37.9 µM), without a hit: at the top dose activity change, negative = inhibition, usual class: inhibitors | hit rate 1.2% among 300,000; active means well fitted inhibition curve with a large enough effect; inconclusive means small, poorly fitted or top-dose-only effect, or effect the other way; inactive means flat fitted curve, though single readings scatter; tested in HEK293 cells; note: % is set by controls: 0 for no effect and ±100 for the full control effect; nearly all actives have a fitted effect of over 50% in size; luciferase read-out
NS1 function inh: influenza NS1 inhibition; Potency, µM (titrated, usually from 46.1 µM), for the others: top-dose activity, positive = more growth; hit rate 0.4% among 270,000; S. cerevisiae slowed by influenza A NS1, growth recovery by OD600; active means well fitted rising curve with a large enough effect; inconclusive means small, poorly fitted or top-dose-only effect; inactive means no such curve, though single readings can be large or run the other way; note: nearly all actives have a fitted effect of over 50% in size
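Recovery from NS1-induced slow growth read by OD600 in budding yeast switched to galactose assay medium (pH 6.0, -URA) at 1:100 dilution. Compound 23 nl per well; the matching strain lacking NS1 serves as control.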
MARV entry inh: inhibitors of Marburg virus binding or cell entry; Marburg virus pseudotyped entry inhibition, cell reporter; control for the full effect not named in the record; about a third of the inactives were read at about 46 µM; hit rate 1.8% among 300,000; Potency, µM (titrated, usually from 37.8 µM), without a hit: top-dose activity change, negative = inhibition, actives largely listed as inhibitors; active = well fitted inhibition curve with a large enough effect; inconclusive = small, poorly fitted or top-dose-only effect, or effect the other way; inactive = flat fitted curve, though single readings scatter; tested in HEK293 cells; about a fifth of its hits are not listed in these tables; note: % is set by controls: 0 for no effect and ±100 for the full control effect; luciferase read-out
2A StopGo: FMDV 2A StopGo reporter, luciferase signal | human cells with a luciferase reporter of 2A StopGo recoding; control for the full effect not named in the record | Potency, µM (series often up to 57.9 µM), inactives show at the highest dose signal change, negative = less light | hit rate 1.2% among 410,000 | AID 1159524; active = well fitted falling curve with a large enough effect; inconclusive = small, poorly fitted or top-dose-only effect; inactive = no such curve, though single readings can be large or run the other way; tested in HEK293T cells; note: % is set by controls: 0 for no effect and ±100 for the full control effect; nearly all actives have a fitted effect of over 45% in size; luciferase light after 4 h
SARS PLP yeast: blocks SARS-CoV papain-like protease in a yeast assay; Potency, µM (series often up to 32.9 µM), inactives show at the highest dose activity, positive = growth rescue; S. cerevisiae expressing SARS-CoV PLpro, growth rescue; control for the full effect not named in the record; hit rate 0.19% among 330,000; active means well fitted rising curve with a large enough effect; inconclusive means small, poorly fitted or top-dose-only effect; inactive means no such curve, though single readings can be large or run the other way; note: 0% is about no effect; nearly all actives have a fitted effect of over 55% in size; growth read by luminescence after 48 h
Active calls of the source: *; ? = inconclusive; . = not tested or not shown; & = joins results of further samples; [ ] = remark or other dose. Unless noted, calls come from the whole dose curve; as a rule, active = well fitted curve in the direction sought with a large enough effect; inconclusive = small, poorly fitted or top-dose-only effect, or another doubt; inactive = no such curve, though single readings can be large; an effect the other way counts as inactive or inconclusive. Potency is the fitted concentration of half-maximal effect. Compounds were not picked by outcome. About 4.8% of those tested had a hit in this group.

SMILES	RE007 growth inh	Cruzain inh noDet	Cruzain Triton	Lassa entry inh	NS1 function inh	MARV entry inh	2A StopGo	SARS PLP yeast
O=C(Oc1ccccc1N1C(=O)CCC1=O)c1ccco1	1%	?	-2.9%	4%	5%	25%&25%	17%	-4%
O=C(O)CCCNc1cc(N2CCC3(CC2)OCCO3)c2noc3c2c1C(=O)c1ccccc1-3	.	?	-5.1%	.	?	-7%	.	-3%
O=C(c1sccc1Br)N1CCN(Cc2ccc3c(c2)OCO3)CC1	6%	.	.	-3%[46.1 µM]	0%	-19%[46.1 µM]	-27%	1%
CCCc1cc(=O)[nH]c(SCC(=O)Nc2oc(C)c3c(C)n[nH]c(=O)c23)n1	-11%	.	.	10%	.	?	-19%	9%
COc1cc(/C=N/NC(=O)c2c(C)nnn2-c2nonc2N)ccc1O	12%	.	.	-13%[46.1 µM]	.	?	-4%	1%
CCOCCn1cnc2sc(C(=O)Nc3ccccc3C(=O)OC)c(C)c2c1=O	.	4%	2.2%	12%[46.1 µM]	.	.	-10%	.
COc1ccc(-c2c(C)nn(-c3ccccc3)c2NC(C)=O)cc1OC	22%	.	.	.	?	.	-6%	4%
O=C(O)c1ccc2c(c1)C(=O)N(c1ncccn1)C2=O	-5%	-8%	-0.8%	?	2%	?	-9%	12%
Cc1ccc(C(=O)N/N=C2\CCc3ccccc32)c(C)c1	0%	-6%	-7.5%	?	4%	?	-25%	-13%
Cc1sc2nc3n(c(=O)c2c1C)NC(=O)CC3	-13%	5%	2.4%	15%	-14%	18%	-9%	-18%
CC(C(=O)Nc1cccc(S(=O)(=O)N2CCOCC2)c1)N1CCN(c2ccc(F)cc2)CC1 (stereo not given)	-11%	.	.	-19%[46.1 µM]	.	1%[46.1 µM]	-16%	-3%
CCN(CC)C(=O)c1ccc2c(c1)N(Cc1ccccc1F)C(=O)c1ccccc1S2=O (stereo not given)	.	?	1.5%	10%[46.1 µM]	.	?	-7%	.
COc1ccc(N(C(=O)c2ccccc2F)S(=O)(=O)c2ccc3c(c2)n(C)c(=O)n3C)cc1	.	12%	-0.4%	-16%[46.1 µM]	.	-9%[46.1 µM]	-8%	.
COc1ccc(-n2nc(C(=O)Nc3ccc4c(c3)OCO4)c3ccccc3c2=O)c(OC)c1	0%	?	-4.1%	?	4%	?	-30%	-5%
COc1cccc(NC(=O)c2cc3c(=O)n(Cc4cccnc4)ccc3nc2C)c1	.	14%	-3.9%	6%[46.1 µM]	.	.	-18%	.
O=C(COc1ccc(C(=S)N2CCC(Cc3ccccc3)CC2)cc1)N1CCOCC1	-5%	.	.	.	-2%	.	-13%	-1%
C/C(=N\O)C(=O)C(CN1CCCCC1)CN1CCCCC1	-4%	-4%	0.1%	20%	4%	6%	30%	1%
NC(=Nc1ccccc1)Nc1ccccc1	-1%	-3%	0.0%	.	2%	.	-5%	0%
Cc1ccc(-c2nnn(CC(=O)N3CCCCC3)n2)c(-n2cnnn2)c1	-13%	-6%	0.9%	1%	4%	1%	7%	3%
COc1cccc(CNCC(O)COc2ccc(C(=O)c3ccccc3)cc2)c1 (stereo not given)	11%	.	.	-11%[46.1 µM]	8%	?	-5%	-1%
COc1ccc2c(c1)c(=O)c(C(=O)c1ccc(F)cc1)cn2CC(=O)Nc1ccc2c(c1)OCO2	.	-8%	-4.3%	-17%[46.1 µM]	.	-3%[46.1 µM]	-13%	.
Cc1ccc(CN2CCc3nc(SCC(=O)Nc4cccc(C)c4C)[nH]c(=O)c3C2)cc1	.	-5%	-1.7%	?	.	-4%[46.1 µM]	7%	.
CN(C)c1nc2ccccc2n(C)c1=O	4%	.	.	10%[46.1 µM]	.	21%[46.1 µM]	-1%	1%
COCCN(C(=O)COC(=O)CCc1ccc(OC)cc1)c1c(N)n(Cc2ccccc2)c(=O)[nH]c1=O	9%	.	.	8%	.	-3%	3%	-3%
Cc1cccc(C)c1OCC(=O)NCC1(N2CCOCC2)CCCCC1	.	14%	-1.6%	-8%[46.1 µM]	.	?	-9%	.
Cc1ccc(C)c(NC(=O)c2cc(-c3cc(C)cc(C)c3O)n[nH]2)c1	6%	.	.	11%[46.1 µM]	-1%	-20%[46.1 µM]	0%	1%
O=C(c1cnn2cccnc12)N1CCN(Cc2ccc3c(c2)OCO3)CC1	-22%	5%	6.4%	8%	4%	1%	.	-4%
NC(=O)CC(NC(=O)Cc1cccc2ccccc12)c1ccc(NC2CCN(Cc3ccccc3)CC2)c([N+](=O)[O-])c1 (stereo not given)	-12%	.	.	.	-8%	.	?	-5%
Cc1noc(C)c1COC(=O)c1cc(F)c(F)cc1Cl	-3%	-6%	-3.2%	-8%	-38%	4%[46.1 µM]	-9%	1%
Cc1ccc(CC(SCc2ccccc2)C(=O)O)cc1C (stereo not given)	24%	.	.	.	-38%	0%[46.1 µM]	-5%	-3%
COc1ccc(-c2nsc(SCC(=O)NCc3ccc4c(c3)OCO4)n2)cc1	20%	3%	1.6%	?	7%	6%	25%	11%
CSc1ccc(CN(C)Cc2nc3ccccc3c(=O)[nH]2)cc1	-3%	.	.	.	-42%	.	-26%	0%
C=CCn1c(SCc2nc3sc(C(=O)O)c(C)c3c(=O)[nH]2)nnc1-c1ccc(F)cc1	0%	.	.	23%[46.1 µM]	12%	0%[46.1 µM]	-13%	0%
CC(C(=O)c1ccc(Br)cc1)[n+]1cccc(NC(=O)c2ccccc2)c1 (stereo not given)	34%	-9%	-5.8%	13%	-18%	1%	-16%	-7%
Cc1ccccc1COc1ccc(-c2nnn(CC(=O)O)n2)cc1	11%	.	.	1%[46.1 µM]	18%	-2%[46.1 µM]	-4%	-6%
COc1cc2c(cc1O)CCC1C2CC[C@]2(C)[C@@H](O)CC[C@@H]12 (stereo not given in full)	.	3%	2.2%	.	-33%	?	.	.
CCN(CC)CCCn1c2c(c(SCC(=O)N3CCc4ccccc43)nc1=O)CCC2	-12%	.	.	-9%	.	?	2%	15%
c1ccc(CNc2cnccn2)cc1	2%	1%	-4.5%	1%	4%	-10%	-1%	1%
CC1CCC(NC(=O)c2cc(S(=O)(=O)N(C)C)ccc2N2CCCC2)CC1 (stereo not given)	2%	.	.	1%	.	20%	60%[activator]	4%
COc1ccc([N+](=O)[O-])cc1NC(=O)c1cncc(Br)c1	0%	.	.	8%[46.1 µM]	-3%	8%[46.1 µM]	8%	-1%
Cc1cccc(CCN(Cc2cc3cccc(C)c3[nH]c2=O)C(=O)N2CCOCC2)c1	14%	?	-2.1%	-11%	0%	1%	-8%	4%
Cn1c(=O)c2c(ncn2CC(N)=O)n(C)c1=O	-1%	-5%	0.5%	0%	4%	-3%	-9%	-3%
Cc1ccccc1CN(C)C1CCN(C)CC1	-18%	.	.	.	0%	.	-7%	1%
Cc1ccc(NC(=S)NNC(=O)CSc2nnc(-c3ccc(Cl)cc3)n2C2CCCCC2)cc1	2%	7%	-2.7%	?	28%	-25%	-22%	26%
CN1C(=O)C(=Cc2c(OCc3cnc(Cl)s3)ccc3ccccc23)C(=O)N(C)C1=O	-14%	.	.	.	7%	.	22%	-1%
Cc1ccc(Cn2c(=O)n(CCCCC(=O)NCCc3ccc(Cl)cc3)c(=O)c3ccccc32)cc1	.	3%	-1.3%	23%[46.1 µM]	.	?	-18%	.
CCCCOC(=O)/C(C#N)=C/c1ccc(-c2ccc(Br)cc2)o1	.	0%	-3.1%	-1%[46.1 µM]	.	.	9%	.
CC(=O)Nc1cc(C)nn1-c1nc2ccccc2s1	-21%	.	.	18%	-1%	0%[46.1 µM]	-6%	-1%
COc1ccc(NC(=O)COC(=O)CC2CC3CCC2C3)c([N+](=O)[O-])c1 (stereo not given)	6%	2%	-9.8%	0%	-4%	5%	-17%	-24%
COc1cccc(C2C3=C(CCCC3=O)Nc3[nH]n(-c4ccccc4)c(=O)c32)c1 (stereo not given)	6%	.	.	-6%	10%	2%	16%	0%
Cc1cc2cc(NC(=O)c3ccco3)ccc2[nH]1	-9%	-5%	9.7%	0%	2.5µM*	?	32%[activator]	3%
C/C(=N\NC(=O)c1cc(-c2ccc(Br)s2)[nH]n1)c1ccncc1	9%	.	.	19%[46.1 µM]	2%	?	8%	0%
Cn1nnc(NC(=O)c2ccccc2F)n1	10%	-7%	-0.6%	-1%	1%	17%	-7%	10%
CC(c1ccco1)N(C(=O)c1ccc(C#N)cc1)c1ccccn1 (stereo not given)	3%	-1%	1.1%	14%	4%	-4%	13%	2%
CCOc1cc2[nH]c(=S)n(Cc3ccc(C(=O)NCCCN4CCOCC4)cc3)c(=O)c2cc1OCC	-11%	.	.	.	2%	.	-7%	-3%
CCS(=O)(=O)n1nc(-c2ccccc2)nc1SCc1ccccc1	?	6%	-3.1%	?	-35%	9%	0%	-13%
CC1(C)Cc2c(sc3nn[nH]c(=O)c23)CO1	10%	-4%	0.7%	?	8%	-11%[46.1 µM]	-18%	4%
CC(C)n1c(N2CCN(C(=O)Nc3ccc(Cl)cc3)CC2)nc2ccccc21	-13%	.	.	.	-7%	.	0%	-3%
COc1cc(C(=O)NNC(=O)c2cccc(Cl)c2)ccc1OCC(=O)N1CCOCC1	15%	.	.	5%	.	-1%	-4%	4%
CCN(CC)C(=O)Cn1cc(SCC(=O)NC2CCCC2)c2ccccc21	21%	.	.	-1%	.	21%[46.1 µM]	9%	1%
Further records.
SMILES	RE007 growth inh	Cruzain inh noDet	Cruzain Triton	Lassa entry inh	NS1 function inh	MARV entry inh	2A StopGo	SARS PLP yeast
Cc1ccc(C(C)C)c(OCc2ccc(C(=O)N/N=C/c3ccc(O)c(O)c3)cc2)c1	1%	1%	-9.7%	?	13µM*	?	?	-3%
Cc1cc(C(=O)OCC(=O)NCc2ccc3c(c2)OCO3)c2ccccc2n1	5%	.	.	11%[46.1 µM]	-2%	-21%[46.1 µM]	-5%	-1%
O=C(c1ccco1)N1CCN(c2ncnc3c2[nH]c2ccc(Br)cc23)CC1	-15%	0%	-18%	?	10%	?	?	?
COc1ccc(C(CNC(=O)Cn2[nH]c(=O)c3ccccc3c2=O)N2CCCC2)cc1 (stereo not given)	-6%	-13%	-0.8%	16%	8%	-8%	-4%	2%
CC(C)Oc1ccc(CNC(=O)C2CCN(C(=O)N3CCOc4ccccc43)CC2)cc1	15%	.	.	.	-1%	.	?	8%
COc1ccc(NC2=Nc3cccc4cccc2c34)cc1OC	-3%	2%	-4.8%	-18%	-13%	?	-14%	0%
